Calb biofilm kill: mixture kills Candida albicans biofilm cells | hit rate 0.02% among 120,000 | inhibition, % at 7.6 µM | C. albicans biofilm persisters + clotrimazole, fluorescence viability; primary screen in compound mixtures of four per well;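 active means inhibition above 30.3% in the primary screen of four-compound pools, then above 30% when the compound was retested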;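 further: compounds exposed to preformed 24 h biofilms for 48 h; the number belongs to the whole pool; some results filed as inactive read as strong as hits; inactives centre near 12; 0% = biofilm with clotrimazole alone and 100% = kill control; retested singly at about 60 µM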
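Incubation: 24 h biofilm formation, then 48 h compound exposure, 37 °C | Material: C. albicans biofilms | Buffer or medium: RPMI/MOPS medium, pH 7.0 | Measured by: 2-h Alamar Blue fluorescence, 535/590 nm excitation/emission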
The depositor's hits bear a star. These rows are one share of the data. The share of hits here may be higher or lower than overall.

SMILES | Calb biofilm kill
CCN1CCc2c(sc(NC(=O)Nc3ccc(Cl)c(Cl)c3)c2C(N)=O)C1 | 15
Cc1ccc(-c2nnc(SCC(=O)NNC(=O)COc3ccccc3C)n2C)cc1 | 8
CCOC(=O)c1ccc(S(=O)(=O)NCCN2CCOCC2)cc1 | 11
O=C(NCc1nc2ccccc2[nH]1)C1=C[C@@H](c2ccccc2)C[C@@H](OCc2ccc(CO)cc2)O1 | 19
O=[N+]([O-])c1ccc(N2CCN(S(=O)(=O)c3ccccc3[N+](=O)[O-])CC2)cc1N1CCc2ccccc2C1 | 27
CC(C)c1ccc(/C=C/C(=O)Nc2nncs2)cc1 | 17
CNC(=S)NNC(=O)c1cccc(N(C)C)c1 | 13
COc1cccc(CC2(CO)CCCN(Cc3cnn(-c4ccccc4)c3)C2)c1 (stereo not given) | 22
O=C(c1ccc(S(=O)(=O)c2ccccc2)cc1)N1CCCCCC1 | 10
COc1ccccc1N=CC1=C(O)CC(c2ccccc2)CC1=O (stereo not given) | 9
COc1cc(C=Nc2c(C)cc(C)cc2C)ccc1OC(C)=O | 9
COCCNCCCCOc1ccccc1-c1ccccc1 | 16
COc1ccc(CNC(=O)CSCc2ccccc2Cl)cc1 | 23
O=C1CC(c2ccc(O)c(O)c2)Oc2cc(O)cc(O)c21 (stereo not given) | 21
Cc1cc(Cl)ccc1NNC(=O)c1snnc1C | 14
NS(=O)(=O)c1cccc(NC(=O)Nc2ccc(Cl)cc2)c1 | 14
CC(=O)Nc1cccc(CP(=O)(c2ccccc2)c2ccccc2)c1 | 18
Cc1ccc(S(=O)(=O)N2CCOCC2)cc1NC(=O)COC(=O)Cc1ccsc1 | 12
CCCNC(=S)N1CCN(c2nc(C)nc3sc4c(c23)CCCC4)CC1 | 18
Cc1ccc(CN2CCN(Cc3ccc4c(c3)OCCO4)CC2CCO)cc1 (stereo not given) | 12
c1ccc2sc(Nc3nc4cc5c(cc4s3)OCO5)nc2c1 | 18
O=C(NC(=S)Nc1ccc(CN2CCOCC2)cc1)c1cc2ccccc2o1 | 18
O=C(/C=C/c1ccccc1)C1C(=O)c2ccccc2C1=O | 17
O=C(NCCCN1CCOCC1)C(=O)N/N=C/c1cccc2ccccc12 | 10
Cc1ccc(NC(=S)Nc2cccnc2)c(S(=O)(=O)N2CCCCC2)c1 | 16
CC1(C)CC(=O)C(N=Nc2cc(C(F)(F)F)ccc2Cl)=C(O)C1 | -8
CCOC(=O)C1=C(O)c2ccccc2C(=O)/C1=C\c1ccc(C)cc1 | 8
CN(C)CCCNc1ccc(-c2nn(C)c(=O)c3ccccc23)cc1[N+](=O)[O-] | -1
CC(/C=C/C1(O)C(C)CC(=O)CC1(C)C)OC1OC(CO)C(O)C(O)C1O (stereo not given) | 23
CN1C(=O)C(O)(CC(=O)/C=C/c2ccco2)c2cc(Br)ccc21 (stereo not given) | 2
CC(=O)Nc1ccc(S(=O)(=O)N(C)c2ccc(OCC(=O)OCC(=O)NCc3ccco3)cc2)cc1 | 17
CN(Cc1ccccc1)S(=O)(=O)c1ccc(OCC(=O)Nc2cccc([N+](=O)[O-])c2)cc1 | 16
O=C(NC1CCCC1)C(c1ccccc1F)N(C(=O)Cc1cccs1)c1ccc2c(c1)OCCO2 (stereo not given) | 19
CCC(=O)c1ccc(OCC(O)Cn2nnc3ccccc32)cc1 (stereo not given) | 11
Cc1cc(C(=O)N/N=C/C=C/c2ccc([N+](=O)[O-])cc2)n[nH]1 | 12
CC(C)CCNC(=S)Nc1ccc(Br)cc1 | 19
CSc1nc2ccccc2c(=O)n1Cc1ccc(F)cc1 | -13
O=C(O)CCCCCn1c(SCC(=O)Nc2ccc(F)cc2)nc2ccsc2c1=O | 22
Cc1cccc(CC2S/C(=N/N=C/c3ccco3)NC2=O)c1 (stereo not given) | -9
CCCCc1nnc(NC(=O)CSc2nc(O)c(Cc3ccccc3)c(=O)[nH]2)s1 | 6
CCN(C(=O)COC(=O)c1ccc(COc2ccc3c(C)cc(=O)oc3c2)cc1)C1CCS(=O)(=O)C1 (stereo not given) | 10
CCOC(=O)Nc1sc(C)c(C)c1C(N)=O | 15
CCNC(=O)CC1C(=O)N(CC)C(=S)N1NC(=O)c1cccnc1 (stereo not given) | 7
CC(=O)C1=C(O)C(=O)N(CCc2c[nH]c3ccccc23)C1c1ccc(C)cc1 (stereo not given) | 23
CCN(CC)C(=O)Cn1cc(C(=O)C(=O)NCCc2ccc(S(N)(=O)=O)cc2)c2ccccc21 | 12
CCC1=NN(C(=O)c2ccc(Br)cc2)C(O)(c2ccccc2)C1 (stereo not given) | 12
COc1ccc(C2(CNC(=O)c3cccc([N+](=O)[O-])c3)CCCCC2)cc1OC | -15
CC1=C(C(=O)OCCNC(=O)c2cccnc2)C(c2cccc([N+](=O)[O-])c2)C(C(=O)OCCN(C)C)=C(C)N1 (stereo not given) | 12
CC(C)Oc1cccc(C(=O)NC(=S)Nc2ccccc2)c1 | -1
C/C(N)=C(/C#N)C(=O)COC(=O)c1ccccc1C(=O)c1ccc(C)cc1 | 0
CNC(=S)N/N=C/c1ccc(N(C)C)cc1 | 2
CCCS(=O)(=O)c1ccc(COC(=O)c2cccc(NC(=O)C(C)C)c2)cc1 | 11
COc1cccc(C2c3[nH]c4ccccc4c3CCN2Cc2cnc(C)s2)c1OC (stereo not given) | 14
Cc1c(N/N=C(\C#N)C(=O)c2ccc(Cl)cc2)c(=O)n(-c2ccccc2)n1C | 26
CC(C)(C)c1ccc(S(=O)(=O)N(CCCN2CCOCC2)Cc2cccs2)cc1 | 0
CCOC(=O)/C(=C/C=C1\Sc2ccccc2N1CC)C(C)=O | 9
CN(C)c1ccc(C(=O)c2ccc(O)cc2O)cc1 | 14
CC[n+]1c(/C=C/N(C)c2ccccc2)oc2ccccc21 | 9
CSCCC(NC(=O)c1ccc(C(C)(C)C)cc1)C(=O)O (stereo not given) | -2
COC(=O)CSc1nc(C)c(C)c(C)c1C(N)=O | 16
Next part:
SMILES | Calb biofilm kill
CCC(C)c1ccccc1NC(=O)COC(=O)CCc1cc(OC)c(OC)c(OC)c1 (stereo not given) | 14
O=C(OCc1nnc(-c2ccccc2)o1)c1ccccc1 | 14
COc1ccc(Oc2cc(Cl)nc(N)n2)cc1 | 11
COC(=O)C1=C(C)NC(=O)NC1c1ccc([N+](=O)[O-])o1 (stereo not given) | 19
COc1ccc(-c2nnc(SCc3ccc(C(=O)O)cc3)n2N)cc1 | 13
Cc1ccc(NC(=O)COC(=O)/C=C/c2ccc(Br)o2)cc1S(=O)(=O)N(C)C | -9
CCN1c2ccc(S(=O)(=O)N3CCOCC3)cc2N(Cc2ccc(OC)cc2)C1C (stereo not given) | 6
Cc1ccc(S(=O)(=O)N2CCC(=O)N(CCOCc3ccc(C(F)(F)F)cc3)CC2)cc1 | 23
Cc1onc(-c2ccccc2)c1NC(=O)Nc1c(-c2ccccc2)noc1C | 12
O=C(O)c1ccc(CNCc2ccccc2F)cc1 | -4
CCOC(=O)CCCNC(=O)CCNC(=O)c1ccc(OCC(C)C)cc1 | 11
Cn1cccc1CC(=O)N/N=C/c1cc([N+](=O)[O-])ccc1Cl | 18

Six compounds drawn at random from those above, as already listed:
SMILES | Calb biofilm kill
COC(=O)C1=C(C)NC(=O)NC1c1ccc([N+](=O)[O-])o1 (stereo not given) | 19
CCC(C)c1ccccc1NC(=O)COC(=O)CCc1cc(OC)c(OC)c(OC)c1 (stereo not given) | 14
O=C(OCc1nnc(-c2ccccc2)o1)c1ccccc1 | 14
O=C(O)c1ccc(CNCc2ccccc2F)cc1 | -4
COc1ccc(Oc2cc(Cl)nc(N)n2)cc1 | 11
Cc1onc(-c2ccccc2)c1NC(=O)Nc1c(-c2ccccc2)noc1C | 12

The results go on.
SMILES | Calb biofilm kill
COc1ccc(N2C(=O)C(CC(=O)Nc3ccccc3)N(CCc3ccc(OC)c(OC)c3)C2=O)cc1 (stereo not given) | 3
O=C(CSC1CC(=O)N(c2ccc(C(=O)O)cc2)C1=O)Nc1ccc2ccccc2c1 (stereo not given) | 20
CCNC(=O)C12CCC(C)(c3nc4cc(C)c(C)cc4nc31)C2(C)C (stereo not given) | 12
CC(=O)Nc1ccccc1N(CC(O)Cn1c2ccccc2c2ccccc21)S(=O)(=O)c1ccc(C)cc1 (stereo not given) | 5
Cc1cc(NC(=O)C(=O)c2cn(C)c3ccccc23)no1 | 14
CS(=O)(=O)N1CCN(c2ccc(NC(=O)c3ccccc3)cc2)CC1 | 6
O=C(CN1C(=O)CSC1=O)N1CCCCC1 | 8
c1ccc(-c2nnc3n2-c2ccccc2SC3)cc1 | 19
O=Cc1ccc(Oc2ccc(F)cc2)nc1 | 11
Cc1c(N/C(=N/S(=O)(=O)c2ccccc2)c2ccc(Cl)cc2)c(=O)n(-c2ccccc2)n1C | 3
C[C@@H](C(=O)NCCc1c[nH]c2ccccc12)[C@H]1C[C@]1(C)[C@H](NC(=O)OCc1ccccc1)c1ccccc1 | 11
CCOC(=O)/C(C#N)=N/Nc1ccccc1C(=O)O | 25
COc1ccc(N2CCc3c(C)nc(SC)nc32)cc1 | 10
Cn1c(=O)c2c(ncn2CCc2ccccc2)n(C)c1=O | 13
O=C(CCNC(=O)OCc1ccccc1)NC1CCCCCC1 | 23
COc1ccc(/C=N/NC(=O)c2nc(-c3ccccc3)cc(-c3ccccc3)n2)cc1O | 18
COc1ccccc1NC(=O)CN(Cc1ccco1)C(=O)c1cc2ccccc2o1 | 22
COc1ccc(-c2nnc(SCC(=O)NNC(=O)Cc3ccccc3)n2C)cc1OC | 10
COCCCNC(=S)NNC(=O)C(O)(c1ccccc1)c1ccccc1 | 12
N/C(=N\OC(=O)c1ccc(Cl)cc1[N+](=O)[O-])c1cccnc1 | -1
COC(=O)C1=C(NC(=O)COc2ccc(Cl)cc2Cl)CCS1 | 17
CC(C)(C)NC(=S)NNC(=O)c1cccc(Br)c1 | 7
O=C1NC(c2ccccc2Br)=N/C1=C\c1ccco1 | 4
Cc1c(Cl)cccc1NC(=S)NCc1ccccc1Cl | 13
COC(=O)c1ccc(-c2ccc(/C=N/NC(=O)CC3(C)OCCCO3)o2)cc1 | 6
Cc1cc(C)n2nc(C(=O)Nc3c(C)nn(Cc4ccc(F)cc4)c3C)cc2n1 | 19
O=c1c(N2CCOCC2)coc2ccccc12 | 15
CCOC(=O)Cc1nnc(NC(=O)C2CCCCC2)s1 | 10
O=[N+]([O-])c1ccc2c(c1)nc1n2CCN(C2CCCCC2)C1 | 14
Cc1cc(NC(=O)C2CCCCC2)ccc1NC(=O)c1ccccc1Cl | 6
COc1ccc(C(=O)Nc2cccc(S(C)(=O)=O)c2)cc1 | 9
Cc1ccccc1OCc1nc(-c2cccnc2)no1 | 12
O=[N+]([O-])c1cccc(/C=N/Nc2nc(C(Cl)(Cl)Cl)nc3ccccc23)c1 | 18
COc1cc(CN2CCNC(=O)C2CC(=O)N(C)Cc2ncc[nH]2)cc(OC)c1 (stereo not given) | 4
Cc1cc(C)cc(OCCNS(=O)(=O)c2cccs2)c1 | 24
O=C(NCc1ccco1)C1CCCCC1 | 23
COc1ccc(-n2nc([N+](=O)[O-])c(=NCc3ccco3)n2O)cc1 | 5
C/C(=N\N)c1c(-c2ccccc2)c2cc(C)ccc2[nH]c1=O | 31
O=C(CSc1nc2ccccc2[nH]1)Nc1nc(-c2cccc(Br)c2)cs1 | 6
N#CNC(=Nc1cccc(C(F)(F)F)c1)SCc1ccc(C(=O)O)cc1 | 27
COC(=O)c1ccc(COc2ccccc2/C=C(\C#N)C(=O)Nc2c(C)cccc2C)cc1 | 15
COCc1cc(C)nc(OCC(=O)N/N=C/c2ccc(OC)c(OC)c2)c1C#N | 10
CN(C)C=NC(=O)c1cc(C(=O)c2ccc(F)cc2)c[nH]1 | 16
CC1=NN(C(=O)c2ccc(Cn3cc(Br)c([N+](=O)[O-])n3)o2)C(O)(C(F)(F)F)C1 (stereo not given) | 17
Cc1ccc(C(=O)NCCSC(C)(C)C)cc1[N+](=O)[O-] | 10
Cc1nnc(NC(=O)CSc2nc(CC(C)C)nc3c2c(=O)n(C)c(=O)n3C)s1 | 17
Cc1ccccc1N1C(=O)CC(Nc2ccc3c(c2)OCO3)C1=O (stereo not given) | 19
COc1ccc(C)cc1N1C(=N)/C(=C2/Nc3ccccc3S2)C(c2ccccc2)C1=O (stereo not given) | 19

A different layout for some results above.
> Cc1c(Cl)cccc1NC(=S)NCc1ccccc1Cl
  Calb biofilm kill: 13

> COC(=O)c1ccc(-c2ccc(/C=N/NC(=O)CC3(C)OCCCO3)o2)cc1
  Calb biofilm kill: 6

> Cc1cc(C)n2nc(C(=O)Nc3c(C)nn(Cc4ccc(F)cc4)c3C)cc2n1
  Calb biofilm kill: 19

> O=c1c(N2CCOCC2)coc2ccccc12
  Calb biofilm kill: 15

Continuation.
SMILES | Calb biofilm kill
COc1ccc(-c2cnnn2-c2ccc(NC(=O)c3ccc(S(=O)(=O)N4CCCCC4)cc3)cc2)cc1 | 13
COc1ccc(C(C(=O)Nc2ccc3c(c2)OCO3)N(C)C(=O)Cc2c[nH]c3ccccc23)cc1 (stereo not given) | 14
CCCCC(CC)CNC(=O)C1CC=CCC1C(=O)O (stereo not given) | 16
O=C(c1cc(C(=O)N2CCOCC2)c2nc3ccccc3n2c1)c1ccccc1O | 15
